HPGD block – qHTS Assay for Inhibitors of HPGD (15-Hydroxyprostaglandin Dehydrogenase); 15-hydroxyprostaglandin dehydrogenase [NAD(+)] (Homo sapiens), P15428; purified HPGD, NADH fluorescence kinetic, PGE2 substrate; Potency, µM, for inactives: top-dose activity change, negative = inhibition, hits mostly inhibitors; hit rate 4.3% among 150,000; active = well fitted inhibition curve with a large enough effect (not every such curve was filed as active); inconclusive = small, poorly fitted or top-dose-only effect, or another doubt; inactive = no such curve, though single readings can be large or run the other way;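 note: top concentration of the series not given in the record; plate controls included wells without enzyme; inactives centre near -10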
Target sequence (P15428 whole entry, looked up): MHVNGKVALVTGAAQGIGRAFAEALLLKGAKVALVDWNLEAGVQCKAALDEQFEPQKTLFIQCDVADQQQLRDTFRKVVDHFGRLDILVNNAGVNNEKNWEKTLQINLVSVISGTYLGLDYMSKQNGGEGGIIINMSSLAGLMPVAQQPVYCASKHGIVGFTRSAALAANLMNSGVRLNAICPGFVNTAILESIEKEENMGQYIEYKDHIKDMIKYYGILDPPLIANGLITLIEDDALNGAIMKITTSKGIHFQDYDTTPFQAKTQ
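NADH formation kinetics: reaction with 30 uM PGE2 and 1 mM NAD+ (final), 20 nM enzyme, Tris-HCl pH 8 with Tween 20, after 15 min compound preincubation at room temperature. Fluorescence change, last versus first of five reads.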
* = called active by the depositor; ? = inconclusive. % is set by controls: 0 for no effect and ±100 for the full control effect; potency is the fitted concentration of half-maximal effect. These rows are one share of the data; rates above refer to the full screens.

The first three entries as a preview:
entry	HPGD block	canonical_smiles
1	-23%	O=C(Nc1cccc(Cl)c1)N1CCN(Cc2ccccc2)CC1
2	-17%	Cc1ccccc1C(=O)N1CCN(c2ccc([N+](=O)[O-])c(NCc3ccco3)c2)CC1
3	0%	c1cncc(-c2nc3cc(Cc4ccc5oc(-c6cccnc6)nc5c4)ccc3o2)c1

The whole of this part, repeating the preview:
entry	HPGD block	canonical_smiles
1	-23%	O=C(Nc1cccc(Cl)c1)N1CCN(Cc2ccccc2)CC1
2	-17%	Cc1ccccc1C(=O)N1CCN(c2ccc([N+](=O)[O-])c(NCc3ccco3)c2)CC1
3	0%	c1cncc(-c2nc3cc(Cc4ccc5oc(-c6cccnc6)nc5c4)ccc3o2)c1
4	-9%	CCC1Oc2ccccc2N(CC(=O)NCCc2ccc(OC)c(OC)c2)C1=O (stereo not given)
5	-8%	CCOC(=O)CCCNc1ccc([N+](=O)[O-])cc1[N+](=O)[O-]
6	-29%	Cc1ccc(C(=O)c2coc3ccc(O)c(Cl)c23)cc1
7	-1%	CC1CN(C(=O)COc2ncnc3ccccc23)CC(C)O1 (stereo not given)
8	-15%	COc1cccc(-c2nc(-c3ccc(NC(=O)c4ccncc4)cc3)no2)c1
9	3%	Cc1nccn1CC(O)COC1CCCCC1 (stereo not given)
10	-24%	CC(=O)c1cc2c(cc1NS(=O)(=O)c1ccc3c(c1)OCCO3)OCO2
11	-9%	COc1cc(OC)cc(C(=O)NCc2cccnc2)c1
12	-24%	N#C/C(=C(\O)Cc1ccccc1)c1nc2ccccc2[nH]1
13	0%	Cc1ccc(S(=O)(=O)NCc2ccncc2)cc1
14	-8%	CC(C)n1c(-c2ccco2)csc1=Nc1cccnc1
15	?	Cc1c(C)n(C)c2ccc(C(=O)Nc3cccc4ccccc34)cc12
16	-11%	CC(=O)C(/C=N/c1cc(-c2ccc(C)cc2)nn1-c1ccccc1)=C(\C)O
17	-23%	[C-]#[N+]/C(C#N)=C\c1cc(C(C)(C)C)c(O)c(C(C)(C)C)c1
18	-11%	Cc1ccc(N2C(=O)CC(N3CCN(C)CC3)C2=O)cc1 (stereo not given)
19	-2%	CCN1CCN(CC(=O)Nc2cccc(C)c2C)C(=O)C1=O
20	6%	COc1cccc(C2C(C#N)=C(N)Oc3cc(C)n(Cc4ccccn4)c(=O)c32)c1OC (stereo not given)
21	1%	CCc1cc2c(=O)n(C(C)C(=O)OC3CCCCC3)cnc2s1 (stereo not given)
22	-18%	c1ccc(Cc2nnc3n2CCCCC3)cc1
23	-18%	CC(C)n1c(N2CCN(C(=O)N3CCCCC3)CC2)nc2ccccc21
24	0%	CC(C)c1[nH]nc2c1C(c1cccnc1)C(C#N)=C(N)O2 (stereo not given)
25	?	CN(C)c1cccc(C(=O)Nc2cccc(F)c2)c1
26	-3%	O=C(CSc1nc2ccccc2[nH]1)NCCCn1ccnc1
27	-12%	CC/C=C\C/C=C\C/C=C\C/C=C\C/C=C\C/C=C\CCC(=O)NCC(=O)O
28	-29%	COc1ccc(C2NCCn3cccc32)cc1 (stereo not given)
29	-10%	CN(CCC#N)C(=O)COC(=O)c1c2c(nc3ccccc13)/C(=C/c1ccco1)CC2
30	-17%	C/C(=C\C(=O)c1ccccc1)Nc1ccc2c(c1)OCO2

Four compounds already listed, sorted by length of the SMILES, ascending.
entry	HPGD block	canonical_smiles
11	-9%	COc1cc(OC)cc(C(=O)NCc2cccnc2)c1
12	-24%	N#C/C(=C(\O)Cc1ccccc1)c1nc2ccccc2[nH]1
5	-8%	CCOC(=O)CCCNc1ccc([N+](=O)[O-])cc1[N+](=O)[O-]
20	6%	COc1cccc(C2C(C#N)=C(N)Oc3cc(C)n(Cc4ccccn4)c(=O)c32)c1OC (stereo not given)

The listing picks up; the 6 compounds before the break are reprinted first.
entry	HPGD block	canonical_smiles
25	?	CN(C)c1cccc(C(=O)Nc2cccc(F)c2)c1
26	-3%	O=C(CSc1nc2ccccc2[nH]1)NCCCn1ccnc1
27	-12%	CC/C=C\C/C=C\C/C=C\C/C=C\C/C=C\C/C=C\CCC(=O)NCC(=O)O
28	-29%	COc1ccc(C2NCCn3cccc32)cc1 (stereo not given)
29	-10%	CN(CCC#N)C(=O)COC(=O)c1c2c(nc3ccccc13)/C(=C/c1ccco1)CC2
30	-17%	C/C(=C\C(=O)c1ccccc1)Nc1ccc2c(c1)OCO2
31	-15%	CCCCc1ccc(C2C3=C(CC(C)(C)CC3=O)NC3=C2C(=O)c2ccccc23)cc1 (stereo not given)
32	-24%	Cn1c(N)c(C#N)c(C#N)c1-c1ccccc1
33	-9%	Cc1c(N2C(=O)C(C)SC23C(=O)Nc2ccccc23)c(=O)n(-c2ccccc2)n1C (stereo not given)
34	-4%	CN(C)Cc1cc(C(F)(F)F)ccc1C(O)(c1ccccc1)c1ccccc1
35	-18%	COc1cccc2cc(C(=O)N(Cc3ccccc3)CC3CCCO3)c(=O)oc12 (stereo not given)
36	-11%	CCCC(C)C(=O)Nc1ccc(NC(C)=O)cc1 (stereo not given)
37	-13%	CCCCCCCCCC(=O)OCC(O)CO (stereo not given)
38	-2%	CCn1c(N)c(C(=O)NC2CCCCC2)sc1=S
39	-22%	Cc1ccccc1NC(=O)CCCSc1nc2ccccc2s1
40	-10%	Cc1nnc(NC(=O)c2ccco2)s1
41	-2%	CCCNC(=S)N1CCC(NC(=O)C2CCCCC2)CC1
42	-4%	Oc1ccccc1/C=N/Nc1nccnc1Cl
43	2%	COc1cc(Cl)c(C)cc1NC(=O)CCCN1C(=O)CCC1=O
44	-3%	COC(=O)Cc1ccc(NC(=S)N2CCN(c3ccc(OC)cc3)CC2)cc1
45	-12%	COc1ccc(C(=O)C[n+]2ccccc2C)cc1
46	-16%	O=C1CC(c2ccc(Cl)cc2)CC(O)=C1C=NCc1ccc(Cl)c(Cl)c1 (stereo not given)
47	-21%	O=C(Nc1ccc(F)c(F)c1)c1ccc2c(c1)OCO2
48	-21%	COc1cc(C2C(N3C(=O)c4ccccc4C3=O)C(=O)N2c2ccc(C)c(C)c2)cc(OC)c1OC (stereo not given)
49	-2%	COC(C)(C)CCCC(C)C/C=C/C(C)=C/C(=O)O (stereo not given)
50	-10%	COC(=O)CSc1nnc(CNc2nc(-c3ccccc3)cs2)n1C
51	-11%	COc1ccc(C(c2c[nH]c3ccccc23)c2c[nH]c3ccccc23)cc1O
52	-15%	COc1ccccc1C(=O)NCCn1cc(SCC(=O)Nc2nnc(C)s2)c2ccccc21
53	1%	O=C1C2C(c3ccccc3)C=CC(c3ccccc3)C2C(=O)N1c1ccccn1 (stereo not given)
54	-3%	COc1ccc(CCN2C(=O)C3C4C=CC(C4)C3C2=O)cc1OC (stereo not given)
55	-12%	COc1ccc(OC)c(C2C=C(C34CC5CC(CC(C5)C3)C4)NC(=S)N2)c1 (stereo not given)
56	0%	NNC(=O)[C@@H](O)[C@H](O)C(=O)NN
57	?	C=CCOC(=O)c1c(C)nc2cc3c(cc2c1C)OCO3
58	-13%	CC(=O)N1CCC2(CC1)CN(c1ccncc1)C2
59	-4%	COC(=O)C1CSC(C(=O)OC)N1C(=O)Nc1ccc(Cl)cc1 (stereo not given)
60	22µM*	O=C(c1ccc(O)cc1)c1ccc(C(=O)c2ccc(O)cc2)cc1

Entries listed so far with an aryl thioether with sulfur outside any ring (4):
entry	HPGD block	canonical_smiles
26	-3%	O=C(CSc1nc2ccccc2[nH]1)NCCCn1ccnc1
39	-22%	Cc1ccccc1NC(=O)CCCSc1nc2ccccc2s1
50	-10%	COC(=O)CSc1nnc(CNc2nc(-c3ccccc3)cs2)n1C
52	-15%	COc1ccccc1C(=O)NCCn1cc(SCC(=O)Nc2nnc(C)s2)c2ccccc21

Following part.
entry	HPGD block	canonical_smiles
61	-28%	COc1ccc(-c2csc(Nc3ncccc3C)n2)cc1
62	?	Cc1nc2ccc(-c3nc4ccccc4o3)cc2[nH]1
63	-15%	COc1ccccc1CNc1nc(S(=O)(=O)c2ccccc2)c(Cl)s1
64	5%	COC(=O)CSc1nnc(-c2cnccn2)n1C
65	4%	O=C(CN1N=C(C(F)(F)F)CC1(O)c1ccc([N+](=O)[O-])cc1)c1ccccc1 (stereo not given)
66	-24%	COC(=O)[C@H](COC(C)(C)C)NC(=O)O[C@@H]1C(=O)c2cc(OC)ccc2O[C@H]1c1ccc(OC)c(Br)c1
67	-7%	COc1ccc(CNC(=O)CN(CC2CCCO2)C(=O)CNS(=O)(=O)c2ccccc2)cc1 (stereo not given)
68	-27%	COc1ccccc1CC(=O)N1CCN(c2ccccn2)CC1
69	-24%	Cc1ccccc1CNC(=O)c1ccc(CSCc2ccccc2)cc1
70	2%	COc1ccc(C2C(C(=O)Nc3cccc(C)n3)CCC(=O)N2c2ccc(OC)cc2)cc1 (stereo not given)
71	-4%	COc1cccc(CN2CCNC(=O)C2CC(=O)O)c1OC (stereo not given)
72	-13%	CCOc1[nH]n(-c2ccc(Cl)cc2)c(=O)c1C=Nc1ccc(Cl)cc1
73	?	O=c1c(-c2ccccc2)nc2cncnc2n1C1CC1
74	-22%	O=C(Cc1n[nH]c(=O)c2ccccc12)OCC(=O)c1ccc2c(c1)OCCO2
75	-3%	C/C(CC(=O)Nc1ccc(F)cc1)=N\NC(=O)COc1ccccc1
76	?	COCCNC(=O)c1c[nH]n2c(=O)cc(C3CCN(C(=O)OC(C)(C)C)CC3)nc12
77	14µM*	Cc1ccc(-c2nn(C)c(=O)c3ccccc23)cc1S(=O)(=O)N1CCOCC1
78	-9%	O=C(Nc1ccc(Br)cc1)N1CCCCCCC1
79	-27%	c1csc(CSc2nc3ccccc3s2)c1
80	-8%	O=C(CN(Cc1ccco1)C(=O)CCC(=O)Nc1ccccn1)NCCc1ccccc1
81	-3%	O=C(Nc1cc(Cl)ccn1)C1CCN(S(=O)(=O)c2cccs2)CC1
82	-21%	CCOc1ccc2nc(C)cc(Nc3cccc([N+](=O)[O-])c3)c2c1
83	-12%	CCn1c(SCC(=O)Nc2ccccc2F)nc2c(c1=O)SC(C)C2 (stereo not given)
84	?	CC1CCc2c(C(=O)NCc3ccccn3)csc2C1 (stereo not given)
85	-11%	COc1ccc(C)cc1S(=O)(=O)N(CC(=O)Nc1cccc([N+](=O)[O-])c1)c1ccccc1
86	-4%	Cc1ccc(S(=O)(=O)NNC(=O)CCC(=O)Nc2ccc(C)c(C)c2)cc1
87	-5%	COc1ccc(NC(=O)CSc2ncn(-c3ccccc3)n2)cc1Cl
88	-12%	Cc1cc(NC(=O)CSc2nnc(C3CC3)n2Cc2ccccc2)no1
89	?	CCOC(=O)Nc1nnc(-c2ccccc2OC)s1
90	-5%	CNC(=O)NC(=O)CSc1nc2ccccc2n1CCOC
91	-8%	O=C1O[C@@H]([C@@H](O)CO)[C@@H](O)[C@H]1O
92	-3%	c1ccc(CNn2nnnc2-c2ccccc2)cc1
93	-8%	O=C(OCCN1CCCCC1)c1ccc(Cl)cc1
94	-9%	O=C(CSCc1ccccc1)Nc1nccs1
95	-18%	COC(=O)c1ccc(C(NC(=O)OCc2ccccc2)/C(I)=C/[C@@H](C)C(=O)NCc2ccncc2)cc1 (stereo not given in full)
96	-6%	CC(C)COc1ccc(CNC(=S)N/N=C/c2ccc([N+](=O)[O-])cc2)cc1
97	-14%	CCOc1ccc(-c2nc(CSc3nnc(N)s3)cs2)cc1OC
98	?	COC(=O)Nc1c(-c2ccccc2)nc2ccccn12
99	-15%	CCOC(=O)c1c(NC(=O)COC)sc2c1CCCC2
100	-11%	CCOC(=O)CSc1nc2c(sc(=S)n2Cc2ccco2)c(=O)n1-c1ccccc1
101	?	COC(=O)c1ccccc1NC(=O)C1COc2ccccc2O1 (stereo not given)
102	-16%	COc1ccc(CCNC(=O)c2cc3sccc3n2C)cc1OC
103	?	O=C(Nc1ccc(N=Nc2ccccc2)c(NC(=O)C2CCCO2)c1)C1CCCO1 (stereo not given)
104	-3%	CO/C=C/C#CC1(O)CCN(C)CC1
105	-2%	O=c1ccc(OCCOc2ccccc2)nn1-c1ccccc1
106	-5%	CCn1cc(Br)c(C(=O)NC(=S)Nc2ccc(C(=O)OC)cc2)n1
107	-6%	C[C@@H]1CC=C[C@@H]2[C@H]1C(=O)N(Cc1ccccc1)[C@H]2c1cccc(Br)c1
108	-9%	Cc1ccccc1CSc1nnc(Cn2c(=O)sc3ccccc32)n1C
109	28µM*	N#C/C(=C\c1ccccc1)c1n[nH]c(Cn2cncn2)n1
110	-6%	Cc1c(NC(=O)c2ccccc2N(C)S(=O)(=O)c2ccccc2)c(=O)n(-c2ccccc2)n1C
111	-6%	O=C(NC1CCCC1)C(c1cccs1)N(C(=O)c1ccco1)c1ccc2c(c1)OCO2 (stereo not given)
112	-8%	COC(=O)c1ccc(C)c(NC(=O)Cc2coc3cc(OC)ccc23)c1
113	-11%	CCc1ccc2c(c1)C(c1ccc([N+](=O)[O-])cc1)=NNC(c1ccccc1)=N2
114	-9%	N/C(Cc1ccc(Cl)cc1Cl)=N\OC(=O)Cc1ccc(Cl)cc1
115	?	CCOC(=O)N1CCN(C(=O)Nc2ccc3nc(-c4ccccn4)c(-c4ccccn4)nc3c2)CC1
116	-6%	Cc1ccc(S(=O)(=O)Cc2ccc(C(=O)N3CCN(c4ccc(F)cc4)CC3)o2)cc1
117	-12%	Cc1ccc(NC(=O)Cn2cnc3c(cnn3C(C)(C)C)c2=O)cc1
118	-8%	CC1Cc2ccccc2N1C(=O)COC(=O)c1cccnc1Cl (stereo not given)
119	-10%	Clc1ccc(CN(CC2CCCO2)C(c2cccs2)c2nnnn2C2CCCC2)cc1 (stereo not given)
120	?	CCOC(=O)C1=C(C)NC2=C(C(=O)C(C(=O)OCC)C(c3cccc(OC)c3)C2)C1c1ccccn1 (stereo not given)
121	-10%	Cc1ccsc1C1CC(=O)NC2=C1C(=O)CC(C)(C)C2 (stereo not given)
